VACV Venus inh: vaccinia inhibition (Venus reporter) | Vaccinia virus Venus reporter expression, fluorescence | actives 0.46% (n = 330,000) | AID 720580 | Potency, µM (doses to about 36.5 µM), without a hit: top-dose activity change, negative = inhibition, most hits filed as inhibitors; active means well fitted inhibition curve with a large enough effect; inconclusive means small, poorly fitted or top-dose-only effect; inactive means no such curve, though single readings can be large or run the other way; tested in A549 cells; note: nearly all actives have a fitted effect of over 30% in size; inactives centre near -10
Vaccinia mCherry: vaccinia inhibition (mCherry reporter) | Vaccinia virus mCherry reporter infection, fluorescence; about a quarter of the inactives have no number | Potency, µM (highest dose often 36.5 µM), for the others: at the highest dose activity change, negative = inhibition, usual class: inhibitors | actives 0.63% (n = 310,000) | AID 720579; active = well fitted inhibition curve with a large enough effect; inconclusive = small, poorly fitted or top-dose-only effect; inactive = no such curve, though single readings can be large or run the other way; tested in A549 cells; note: nearly all actives have a fitted effect of over 35% in size; inactives centre near -10
* marks the source's active call; other numbers are inactive results; i = inactive; ? = inconclusive; . = no result given; & = joins results of further samples; [ ] = remark or other dose. % is set by controls: 0 for no effect and ±100 for the full control effect; potency is the fitted concentration of half-maximal effect.

1) COc1cccc(C2CCCCN2Cc2nc(-c3ccc(C)o3)oc2C)c1 (stereo unspecified)
2) CC(C)(C)N(Cc1ccccc1)C(=O)COC(=O)C1CC1
3) Cc1ccc(-c2cc3ncc(C(=O)c4cc(Cl)c(C)cc4O)cn3n2)cc1
4) Cc1ccc(-n2cc(CCCCCCCCC(=O)O)nn2)cc1
5) Cc1ccccc1C(=O)c1c[nH]c(C(=O)N2CCN(c3ccccc3F)CC2)c1
6) Cc1cn([C@H]2C[C@H](O)[C@@H](CNCC3=Cc4cc(O)ccc4OC3)O2)c(=O)[nH]c1=O
7) CS(=O)(=O)c1cnc2c(-c3ccsc3)cnn2c1N
8) NC(=S)N/N=C1\CCSc2ccc(Cl)cc21
9) CC(C)(C)C(=O)NC(Nc1cccc2cccnc12)C(Cl)(Cl)Cl (stereo unspecified)
10) Cc1ccc(/C=C/c2onc(C)c2S(=O)(=O)N2CCC(C(=O)Nc3ccc(Br)c(C)c3)CC2)cc1
Screen / compound no.,1,2,3,4,5,6,7,8,9,10
VACV Venus inh,7%,-3%,-5%,-2%&-13%,188%[activator],-4%,-14%,?,-24%,-17%
Vaccinia mCherry,-2%,-4%,-13%,-11%&-14%,359%[activator],-24%,-14%,?,.,-19%

11) CCCN(CCC)CCNC(=O)Cn1cnc2sc(C)c(S(=O)(=O)N3CCN(c4ccccc4OC)CC3)c2c1=O
12) CCCc1cc(=O)[nH]c(SCC(=O)Nc2ccc(Br)cc2Br)n1
13) CC1(C(=O)NS(=O)(=O)c2cccc(C#N)c2)CCN1C(=O)CC1CCCC1 (stereo unspecified)
14) CCCc1cc(=O)n2[nH]c(-c3cccc(Br)c3)cc2n1
15) Cn1c(=O)n(CC(=O)O)c(=O)c2c1nc1n2CCCN1c1ccc(Cl)cc1
16) O=C(CC[C@H]1O[C@@H](n2ccc(=O)[nH]c2=O)[C@H](O)[C@@H]1O)N[C@@H](Cc1ccccc1)C(=O)NCC1CCCO1 (stereo partly specified)
17) O=C(CSc1nc2ccccc2c(=O)n1-c1ccccc1)c1cccc([N+](=O)[O-])c1
18) COc1ccccc1C(=O)NCCNC(=O)c1ccc(C)nc1
19) CN(C)S(=O)(=O)c1cccc(C(=O)Nc2ccc(C(=O)Nc3cccc(S(N)(=O)=O)c3)cc2)c1
20) CCN(CC)C(=O)Oc1ccc2c(c1)O/C(=C\c1ccco1)C2=O
Screen / compound no.,11,12,13,14,15,16,17,18,19,20
VACV Venus inh,-15%,2%,-1%,-1%,-5%,-5%,-2%,6%,-3%,-6%
Vaccinia mCherry,-10%,3%,12%,-14%,0%,45%[activator],?,-5%,i,-1%

21) COC(=O)N/N=C/c1ccc(Oc2ccccc2)cc1
22) COc1ccc(C(C(=O)NC2CCCC2)N(Cc2ccc(C)cc2)C(=O)c2ccn[nH]2)cc1OC (stereo unspecified)
23) CCOc1ccc(NC(=O)Cn2c3ncccc3c(=O)n2-c2ccc(CC)cc2)cc1
24) Cc1ccc(N(CC(=O)O)S(C)(=O)=O)cc1
25) COc1cccc2c1C(=O)c1c(O)c3c(c(O)c1C2=O)CC(O)(C(C)=NO)CC3OC1CC(N)C(O)C(C)O1 (stereo unspecified)
26) CCCOc1ccc(CCCN=C(N)N)cc1Cl
27) COc1ccc(-c2nnc(SCC(=O)N(C)Cc3ccccc3)o2)cc1OC
28) COc1ccc(-c2nc(CS(=O)CC(=O)NCc3cccnc3)c(C)o2)cc1 (stereo unspecified)
29) COC(=O)c1ccc(Cl)cc1NC(=O)N1CCCn2nc(C)cc21
30) CCN(Cc1ccccc1)C(=O)Cn1cc2c(n1)CCCC2
Screen / compound no.,21,22,23,24,25,26,27,28,29,30
VACV Venus inh,-6%,-10%,-1%[7.34 µM],-8%,.,?,-18%,-1%,-7%,-3%
Vaccinia mCherry,-6%,-19%,-3%[7.34 µM],i,384%[activator],-30%,-19%,-13%,-13%,-3%

Part of the list above in order of SMILES length, high to low:
16) O=C(CC[C@H]1O[C@@H](n2ccc(=O)[nH]c2=O)[C@H](O)[C@@H]1O)N[C@@H](Cc1ccccc1)C(=O)NCC1CCCO1 (stereo partly specified)
11) CCCN(CCC)CCNC(=O)Cn1cnc2sc(C)c(S(=O)(=O)N3CCN(c4ccccc4OC)CC3)c2c1=O
19) CN(C)S(=O)(=O)c1cccc(C(=O)Nc2ccc(C(=O)Nc3cccc(S(N)(=O)=O)c3)cc2)c1
5) Cc1ccccc1C(=O)c1c[nH]c(C(=O)N2CCN(c3ccccc3F)CC2)c1
28) COc1ccc(-c2nc(CS(=O)CC(=O)NCc3cccnc3)c(C)o2)cc1 (stereo unspecified)
12) CCCc1cc(=O)[nH]c(SCC(=O)Nc2ccc(Br)cc2Br)n1
14) CCCc1cc(=O)n2[nH]c(-c3cccc(Br)c3)cc2n1
2) CC(C)(C)N(Cc1ccccc1)C(=O)COC(=O)C1CC1
4) Cc1ccc(-n2cc(CCCCCCCCC(=O)O)nn2)cc1
21) COC(=O)N/N=C/c1ccc(Oc2ccccc2)cc1
8) NC(=S)N/N=C1\CCSc2ccc(Cl)cc21
Screen / compound no.,16,11,19,5,28,12,14,2,4,21,8
VACV Venus inh,-5%,-15%,-3%,188%[activator],-1%,2%,-1%,-3%,-2%&-13%,-6%,?
Vaccinia mCherry,45%[activator],-10%,i,359%[activator],-13%,3%,-14%,-4%,-11%&-14%,-6%,?

(cont.)
31) O=C1CC(c2ccc(Cl)c([N+](=O)[O-])c2)c2ccc3ccccc3c2N1 (stereo unspecified)
32) COc1ccc(CNCCCn2cnc(C(=O)Nc3ccc(C)c(C)c3)n2)cc1
33) Cc1ccc(SCCC(=O)NCc2ccco2)cc1
34) S=c1[nH]nc(CSc2nc3ccccc3s2)n1C1CCCCC1
35) COc1cc2nc(N(C)C)nc(N)c2cc1OC
36) CC(C)CN1CN(Cc2ccccc2)CNC1=S
37) CC(=O)c1[nH]c(C)c(C(=O)N2CCCC(Nc3ccc(C(C)C)cc3)C2)c1C (stereo unspecified)
38) COc1ccc(CC(=O)N(C)CC(=O)Nc2cccc(F)c2)cc1S(=O)(=O)N1CCOCC1
39) CCN(CC)S(=O)(=O)c1ccc2nc(CCl)[nH]c2c1
40) O=C(N[C@@H](Cc1ccc(O)cc1)C(=O)O)c1ccncc1
Screen / compound no.,31,32,33,34,35,36,37,38,39,40
VACV Venus inh,?,0%,-11%,0%,-38%,-10%,-21%,-5%,-17%,-8%
Vaccinia mCherry,11µM*,i,.,2%,.,i,-21%,i,-5%,i

41) CCOc1ccccc1CNC(=O)c1nn(C)c2c1CS(=O)(=O)c1ccccc1-2
42) COc1cc(C(=O)N/N=C/c2ccc3c(c2)c2ccccc2n3C)ccc1O
43) Cc1oc(C(N)=O)nc1-c1ccccc1
44) COc1cc2c(cc1NC(=O)C(Cl)Cl)-c1ccc(NC(=O)C(Cl)Cl)cc1C2
45) COc1ccccc1N=Nc1c(O)[nH]c2ccc(Br)cc12
46) O=C(/C=C/c1ccccc1)Nc1cc(NC(=O)/C=C/c2ccccc2)cc(C(=O)O)c1
47) CCN(CC)CCNC(=O)c1cnn(-c2ncc3c(n2)-c2ccc(OC)cc2CC3)c1C
48) CC(C)(C)CC(=O)Nc1ccc(S(=O)(=O)NC2=NCCCCC2)cc1
49) O=C(NCCCN1CCCCCC1)c1ccc(N2CCCC2=O)cc1
50) COc1cccc(C(=O)N/N=C(\C)c2cccc(NC(=O)c3ccc(F)cc3)c2)c1OC
Screen / compound no.,41,42,43,44,45,46,47,48,49,50
VACV Venus inh,-9%,-25%,-11%,10µM*,-11%,-4%,-13%,-8%,-5%,-17%
Vaccinia mCherry,-9%,-28%,-6%,13µM*,-14%,i,-22%,-2%,.,i

51) CC(=O)c1cccc(NC(=O)C2CCCN(S(=O)(=O)c3cccc4cccnc34)C2)c1 (stereo unspecified)
52) O=C(N/N=C/c1cccc(Oc2ccccc2)c1)c1ccncc1
53) O=C(c1ccc2c(c1)N(Cc1ccc(F)cc1)C(=O)c1ccccc1S2(=O)=O)N1CCCCC1
54) COc1ccc(CCN(C)C(=S)Nc2ccc(SC(F)F)cc2)cc1OC
55) CC(=O)CCC(=O)OCC(=O)Nc1ccc(SC(F)F)cc1
56) CCN(CC)c1ccc(-n2nc3cc(C)c(NC(=O)c4ccccc4F)cc3n2)cc1
57) Cc1csc(NC(=O)C2(C)CCN2C(=O)C(C)C)c1C#N (stereo unspecified)
58) CCOC(=O)c1c(NC=O)sc2c1CCC2
59) O=C(CCc1nnc2ccc(N3CCCCC3)nn12)NCc1ccco1
60) Cc1nn(Cc2ccc(F)cc2)c2sc(C(=O)Nc3nccs3)cc12
Screen / compound no.,51,52,53,54,55,56,57,58,59,60
VACV Venus inh,-12%,4%,-12%,-25%,1%,5%,-11%,-25%,-15%,-4%
Vaccinia mCherry,-16%,-3%,-13%,i,2%,?,-2%,-9%,-8%,i

61) COc1cccc(C(C(=O)NC2CCCC2)N(C(=O)c2ccco2)C2CC2)c1OC (stereo unspecified)
62) CCN(CC)CCCN(Cc1cc2cc3c(cc2[nH]c1=O)OCO3)C(=S)Nc1ccccc1OC
63) CCOc1ncccc1C(=O)OCC(=O)N(CC(C)C)C1CCS(=O)(=O)C1 (stereo unspecified)
64) Cc1nc2nc(NC(=O)C(C)(C)C)[nH]n2c(=O)c1Cc1ccccc1
65) C/C(=C\C(=O)c1ncc(C(F)(F)F)cc1Cl)N(C)C
66) CNC(=O)C[C@@H]1C(=O)N(CCc2ccccc2)CC1(C)C
67) Cc1cccc(C(=O)N(CC(=O)Nc2sc(C)c(C)c2C(N)=O)C2CCCC2)c1
68) CCn1c(=O)n(CC(=O)Nc2cc(OC)ccc2OC)c(=O)c2ccccc21
69) Clc1ccc(OCCOCCN2CCc3ccccc3C2)c(Cl)c1
70) COC(=O)C[C@H]1c2cc(F)ccc2S(=O)(=O)N1c1ccc(N(C)C)cc1
Screen / compound no.,61,62,63,64,65,66,67,68,69,70
VACV Venus inh,-12%,-10%,-3%,1%,-8%,-19%,-13%,-14%,-19%,-4%&-10%
Vaccinia mCherry,.,-6%,-1%,-2%,-7%,i,-16%,-4%,i,?

71) NC(=O)C1=C[C@@H](c2ccc(C(F)(F)F)cc2)C[C@@H](OCc2ccc(CO)cc2)O1
72) Cc1ccc(C(=O)c2cc([N+](=O)[O-])ccc2N2CCCCC2)c(C)c1
73) Cc1cc(C)cc(NC(=O)C2C3C=CC4(O3)C2C(=O)N(CCCN2CCCC2)C4C(=O)NC2CCCC(C)C2C)c1 (stereo unspecified)
74) O=C(CSc1nc(-c2ccccc2)[nH]c1-c1ccccc1)Nc1ccc2c(c1)OCCO2
75) CCCCCCc1cc2cc(/C(N)=N/NC(=O)c3ccncc3)c(=O)oc2cc1O
76) CCn1cc(-c2cc(C(=O)O)c3ccccc3n2)c(C)n1
77) COc1ccc([C@H]2CC(=O)C=C(c3ccc(NC(C)=O)cc3)C2)cc1OC
78) CCOC(=O)Cc1cc(=O)[nH]c(/N=C(\N)Nc2ccc(OC)cc2)n1
79) CN(C)c1ccc(C(CNS(=O)(=O)c2ccc3ccccc3c2)c2c[nH]c3ccccc23)cc1 (stereo unspecified)
80) O=C(NC(=S)N1C[C@H]2C[C@H](C1)c1cccc(=O)n1C2)c1ccc(Cl)cc1Cl
Screen / compound no.,71,72,73,74,75,76,77,78,79,80
VACV Venus inh,-7%,?,-6%,-24%,9%,-1%,-3%,-9%,1%,-2%
Vaccinia mCherry,-24%,?,i,-17%,-3%,i,-17%,i,i,1%

81) Cc1ccc(NC(=O)CN(C)Cc2c(O)ccc3ccccc23)cc1
82) CCOC(=O)c1ccc(NC(=S)N(CCCN2CCCCCC2)Cc2ccco2)cc1
83) Fc1ccccc1Cc1noc(CN2CCN(Cc3ccc4c(c3)OCO4)CC2)n1
84) CCS(=O)(=O)c1oc(-c2ccc(F)cc2)nc1S(=O)(=O)c1ccccc1
85) CCc1cccc2c(C=C(C#N)C#N)cn(CC(=O)N3CCCC3)c12
86) Cc1ccc(C)c(CNC(=O)Nc2ccccc2)c1
87) CC(C)CCCN1CCN=C1N(C)C
88) CCc1nc2ccccc2[nH]c1=O
89) Cc1cc(-c2nc3ccccc3[nH]2)ccc1N
90) CCc1nc2ccc(C(=O)N3CCN(C(=O)c4ccco4)CC3)cn2c1N(C)C(=O)c1cccc(OC)c1
91) Cc1ccc(N(C)C(=O)N2CCN(S(=O)(=O)c3ccc(C)cc3)CC2)cc1
92) CCC1C(=O)NCCN1C(=O)c1ccccc1OC1CCN(S(C)(=O)=O)CC1 (stereo unspecified)
Screen / compound no.,81,82,83,84,85,86,87,88,89,90,91,92
VACV Venus inh,-10%,-16%,-19%,?,-4%,-9%,-10%,-3%,1%,-1%,-17%,-7%
Vaccinia mCherry,-14%,i,-9%,?,-5%,14%,i,i,-13%,-1%,-2%,i
